CSC inhib – cancer stem cell inhibition; 300,000 tested, 1.1% active; inhibition, % at 7.5 µM; cancer stem cell-like cells viability, luminescence; AID 2717;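 active means mean at 75% or more and at least half the replicates too; tested in HMLE shEcad cells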;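 further: 0% = median of negative and 100% = median of positive control wells; the first replicate is given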
PABP FP inh – PABP-poly(A) binding inhibition; AID 2014; PABP-poly(A) RNA binding, fluorescence polarization; inhibition, % at 35 µM; 290,000 tested, 1% active;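 active means 50% or more with normal probe brightness, or confirmed in later tests; about a fifth of its hits are not listed in these tables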;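 further: calls also rest on retests at 20 µM and on dose response follow-up; controls were probe without protein and protein plus probe with vehicle; some compounds called inactive have numbers as strong as hits; many hits fall short of the cut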
Target sequence (P11940 whole entry, looked up): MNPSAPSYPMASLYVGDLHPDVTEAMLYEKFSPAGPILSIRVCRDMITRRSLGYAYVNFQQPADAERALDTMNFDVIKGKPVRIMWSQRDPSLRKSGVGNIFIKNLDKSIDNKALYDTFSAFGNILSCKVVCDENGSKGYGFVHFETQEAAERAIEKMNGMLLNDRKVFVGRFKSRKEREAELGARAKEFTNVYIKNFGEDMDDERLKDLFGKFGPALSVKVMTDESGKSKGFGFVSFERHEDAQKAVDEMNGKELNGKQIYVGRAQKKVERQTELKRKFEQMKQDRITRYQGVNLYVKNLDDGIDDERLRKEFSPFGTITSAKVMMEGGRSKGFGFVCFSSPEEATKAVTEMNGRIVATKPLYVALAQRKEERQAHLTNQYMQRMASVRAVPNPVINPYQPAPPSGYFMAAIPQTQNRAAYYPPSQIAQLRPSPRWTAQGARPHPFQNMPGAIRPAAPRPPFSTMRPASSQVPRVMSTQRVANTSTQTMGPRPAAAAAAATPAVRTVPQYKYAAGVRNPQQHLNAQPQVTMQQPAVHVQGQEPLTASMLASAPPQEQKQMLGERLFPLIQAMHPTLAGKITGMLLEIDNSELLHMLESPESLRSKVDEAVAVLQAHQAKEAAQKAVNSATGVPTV
Yeast UUG start – modulators of start codon recognition fidelity in yeast. S. cerevisiae UUG-firefly luciferase reporter, luminescence/redox ratio. activity score, % at 18.7 µM. 350,000 tested, 0.13% active. AID 602363;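 active means replicate mean at a twofold rise or more, about +100% in these data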;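 further: firefly luciferase made from a UUG start codon reports start codon fidelity; reporter light over untreated wells divided by growth signal over untreated wells; some hits fall short of that in this replicate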
HIV Env fusion – inhibitors of HIV Env-mediated cell fusion | 360,000 tested, 1.1% active | inhibition, % at 12.3 µM | HeLa-JRFL Env/CEM21 cell fusion, luciferase;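 active means mean replicate inhibition score of at least 50 and every replicate individually at or above 50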;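 further: 0% = plate neutral controls and 100% = maraviroc near 300 nM; one replicate is shown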
eIF4H FP inh – inhibitors of RNA binding by human eIF4H. eIF4H fluorescence polarization binding assay. inhibition, % at 35 µM. 290,000 tested, 0.94% active;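 active means 50% or more with normal probe brightness, or confirmed in later tests; about a fifth of its hits are not listed in these tables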;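 further: calls also rest on retests at 20 µM and on dose response follow-up; 0% = protein and probe with vehicle and 100% = probe without protein; strong numbers were not always called active; many hits fall short of the cut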
MT1-MMP act inh – MT1-MMP (human) activation inhibition | AID 651647 | 360,000 tested, 0.061% active | GFP/RFP ratio change, % at 20 µM | P50281 | HT1080 RFP-PRO-GFP cells, GFP/RFP ratio fluorescence, overnight; percent of plate control window, DMSO zero;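 active means GFP/RFP ratio change of at least 30% with cell ATP level not reduced by more than half and red fluorescence within 50% of control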; further: strong numbers were not always called active
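Assay system: HT1080 RFP-PRO-GFP cells | Dosing: 20 µM single dose, 1% DMSO | Incubation: Cells overnight before dosing, compound overnight, 37 °C, 5% CO2 | Evaluation: GFP/RFP fluorescence ratio | Control set: DMSO-only wells and HT1080 RFP-L50D-GFP cell wells as references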
Rce1 inhib – yeast Ras-converting enzyme inhibition; AID 2563; yeast membranes, quenched prenylated peptide cleavage fluorescence; Q03530; calls only; 290,000 tested, 0.27% active;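 active means fall in fluorescence gain of 50% or more versus controls, with final raw signal at or below 3038400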;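 further: plate controls were neutral control wells for no effect and wells lacking membranes for full effect; tested at 10 µM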
Target sequence (Q03530 whole entry, looked up): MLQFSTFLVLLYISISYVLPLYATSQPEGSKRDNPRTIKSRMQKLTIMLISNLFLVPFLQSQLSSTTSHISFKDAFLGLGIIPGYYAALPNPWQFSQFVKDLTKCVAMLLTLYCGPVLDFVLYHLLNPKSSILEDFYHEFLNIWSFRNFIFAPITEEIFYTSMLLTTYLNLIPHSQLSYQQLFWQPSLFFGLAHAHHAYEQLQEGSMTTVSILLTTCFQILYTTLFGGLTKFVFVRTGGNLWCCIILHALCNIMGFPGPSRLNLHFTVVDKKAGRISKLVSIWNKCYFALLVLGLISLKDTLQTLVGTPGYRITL
MT1-MMP act inh RFP – further read-out of MT1-MMP act inh, marked with its call; RFP signal change, %; measured here: RFP expression control read;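 0 = vehicle wells; hits needed this value within 50% of zero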
* hit, by the source's call; i = inactive; . = not tested or not shown; & = joins results of further samples.

Key to letters: A = CSC inhib; B = PABP FP inh; C = Yeast UUG start; D = HIV Env fusion; E = eIF4H FP inh; F = MT1-MMP act inh; G = MT1-MMP act inh RFP; H = Rce1 inhib
Cc1nn2c(COc3ccc(NC(=O)c4ccccc4)cc3)nnc2c2ccccc12
  A: -1	B: -6	C: 14	D: 6	E: -3	F: -3	G: 1	H: .

Cc1ccc(C(=O)OCC(=O)Nc2ccccc2Cl)c(O)c1
  A: -5	B: 9	C: .	D: -12	E: -2	F: -2	G: 2	H: i

CCOc1ccc(/C=N/Nc2cc(N3CCOCC3)nc(C)n2)c(O)c1
  A: 4	B: -4	C: -9	D: -6	E: 18	F: 2	G: -7	H: i

Cc1ccc(C)c(N2CCN(C(=O)Cn3c(=O)oc4cc(S(=O)(=O)N5CCCC5)ccc43)CC2)c1
  A: 7	B: -8	C: -13	D: 36	E: -3	F: -5	G: -18	H: i

CC(=O)N1CCOc2ccc(S(=O)(=O)N(C)c3cccc(C)c3)cc21
  A: -5	B: 13	C: -2	D: -19	E: -10	F: 2	G: 2	H: i

O=[N+]([O-])c1ccc(N2CCN(c3ccc(F)cc3)CC2)cn1
  A: -10	B: 1	C: -17	D: -29	E: 3	F: 5	G: -3	H: i

CCN(CC(=O)Nc1ccc2c(c1)OCCO2)C(=O)c1ccc(C)c(S(=O)(=O)N2CCOCC2)c1
  A: -9	B: .	C: -8	D: 6	E: .	F: 1	G: 4	H: i

C#CCOc1ccccc1CNc1ccccc1
  A: -4	B: -4	C: .	D: -5	E: -3	F: -2	G: -3	H: i

COCC(C)NC(=O)c1ccc2c(c1)S(=O)(=O)c1ccccc1C2=O (stereo not given)
  A: 0	B: 1	C: -3	D: 11	E: 2	F: -1	G: 3	H: i

N/C(=N\N=C/c1ccc(F)cc1)N/N=C\c1ccc(F)cc1
  A: 77*	B: -10	C: -20	D: -32	E: -8	F: 10	G: 3	H: i

COc1ccc(C2NC(C(=O)O)Cc3c2[nH]c2ccccc32)cc1CN1CCN(c2ccc(F)cc2)CC1 (stereo not given)
  A: -11	B: 14	C: -4&1	D: -20	E: 8	F: -9	G: -5	H: i

O=C(NC(Cc1nn[nH]n1)C(=O)OCc1ccccc1)OCc1ccccc1 (stereo not given)
  A: .	B: .	C: -23	D: 8	E: .	F: -1	G: 8	H: .

Fc1cccc(Cc2c(-c3ccc(Cl)cc3)nc3c(Cl)cc(C(F)(F)F)cn23)c1
  A: .	B: .	C: -10	D: -4	E: .	F: 2	G: 5	H: .

Cc1c(O)c(CN2CCCCC2)cc2c3c(c(=O)oc12)CCC3
  A: -15	B: 4	C: -10	D: 19	E: -4	F: 3	G: 1	H: i

COc1ccc(NC(=O)c2nc[nH]c2C(=O)N(C)Cc2ccccc2)cc1
  A: -12	B: -4	C: -6	D: 9	E: -4	F: 6	G: -1	H: i

COc1cccc(/C=C/C(=O)NNC(=O)c2ccncc2)c1
  A: 15	B: .	C: .	D: .	E: .	F: 0	G: 2	H: i

COc1cc(Cl)cc(C(=O)O)c1OCC(=O)O
  A: 10	B: -3	C: -18	D: -13	E: -11	F: 1	G: 7	H: i

CC(C)C(C(=O)NCc1ccco1)N(C(=O)CNS(=O)(=O)c1ccccc1)c1ccccc1 (stereo not given)
  A: 3	B: 6	C: -11	D: 14	E: -5	F: 0	G: 3	H: i

Cc1cc(S(=O)(=O)N2CCCC2)ccc1OCC(=O)N1CCOCC1
  A: 0	B: -6	C: -14	D: -3	E: 1	F: 7	G: 3	H: i

CN(C(=O)c1ccc(NC(=O)Cc2cccc(NC(=O)C3CCN(C(=O)C4CCCC4)CC3)c2)cc1)C1CC1
  A: .	B: .	C: -2	D: -2	E: .	F: 3	G: 4	H: .

CCOC(=O)/C(C#N)=C1/C=Nc2ccccc2N1
  A: -2	B: 4	C: -21	D: -69	E: 0	F: -8	G: 1	H: .

O=C(O)c1ccoc1CN1CCCCC1
  A: 5	B: -12	C: 0	D: -36	E: 0	F: 1	G: 4	H: i

CC(C)n1c(SCc2ccc(Cl)cc2)nc2c1c(=O)[nH]c(=O)n2C
  A: -12	B: 4	C: 2	D: .	E: -3	F: 6	G: -1	H: .

CCOC(=O)C(NC(=O)CCC(=O)Nc1ccc(S(N)(=O)=O)cc1)C(O)c1ccccc1 (stereo not given)
  A: .	B: -6	C: 1	D: .	E: -4	F: .	G: .	H: i

O=C(CC1C(=O)NCCN1CC1CCCCC1)NCCCN1CCOCC1 (stereo not given)
  A: -8	B: 2	C: -17	D: .	E: 6	F: -2	G: 0	H: i

COc1ccc(C(c2nnnn2CS(=O)(=O)c2ccc(C)cc2)N2CCN(Cc3ccccc3)CC2)cc1 (stereo not given)
  A: .	B: .	C: 8	D: .	E: .	F: -8	G: -12	H: i

COC(=O)COc1ccc2c(-c3ccc(OC)cc3)cc(=O)oc2c1
  A: -5	B: 7	C: -15	D: .	E: -4	F: 0	G: 2	H: i

O=C(CCC1CCCN(C(=O)Cn2cnnn2)C1)NCc1ccccc1F (stereo not given)
  A: .	B: -5	C: -20	D: -7	E: -6	F: -1	G: 4	H: i

COc1ccc(C2C(C(=O)O)CCC(=O)N2c2ccc(C)cc2)cc1OC (stereo not given)
  A: 15	B: -1	C: 6	D: -13	E: -6	F: -4	G: 6	H: i

O=[N+]([O-])c1cc2c(cc1/C=N/Nc1nc(Nc3ccccc3)nc(N3CCCCC3)n1)OCO2
  A: 4	B: -7	C: -8	D: -96	E: -6	F: 10	G: 5	H: i

COc1ccccc1OCC(=O)Nc1ccc(O)cc1C(=O)O
  A: -6	B: 2	C: -12	D: .	E: -5	F: 3	G: 3	H: i

COc1ccc(CC(=O)Nc2ccccc2-c2ccccc2)cc1OC
  A: -21	B: 8	C: 10	D: 20	E: -10	F: -3	G: -17	H: i

O=C(NCC(c1ccco1)N1CCN(c2ccc(F)cc2)CC1)c1ccco1 (stereo not given)
  A: 2	B: .	C: -12	D: -34	E: .	F: 14	G: -1	H: i

CC12CC3(C)CC(C)(C1)CC(C(=O)Nc1nn[nH]n1)(C2)C3
  A: 10	B: 17	C: -21	D: -10	E: 2	F: 7	G: 3	H: i

CC(C)NC(=S)N(C)C1(c2ccccc2Cl)CCCCC1=O (stereo not given)
  A: -5	B: -1	C: .	D: -19	E: -1	F: 1	G: 1	H: i

COCC(=O)N1CCC(Oc2ccc(C(=O)N3CCCCC3COC)cc2)CC1 (stereo not given)
  A: -9	B: -10	C: -24	D: 3	E: -16	F: 5	G: 5	H: i

CCCn1c(SCC(=O)NC2CCCC(C)C2C)n[nH]c1=O (stereo not given)
  A: 1	B: 4	C: -21	D: .	E: -7	F: -1	G: 0	H: i

CC1(C)CC(CC(=O)NNc2nc(-c3ccccc3)cs2)C(=O)O1 (stereo not given)
  A: 8	B: 6	C: .	D: .	E: 2	F: -3	G: 0	H: i

Fc1cccc(CSc2ncnc3c2ncn3C2CCCCO2)c1 (stereo not given)
  A: .	B: .	C: -2	D: -5	E: .	F: 4	G: -9	H: .

COCCNC(=O)CSc1nc2sccc2c(=O)n1-c1ccccc1
  A: -8	B: 11	C: -14	D: -9	E: 0	F: 0	G: 4	H: i

COc1ccc(-c2sc3ccccc3c2-c2ccc(OCCN3CCOCC3)cc2)cc1
  A: 136*	B: .	C: -24	D: 0	E: .	F: -4	G: -6	H: .

CCCCN1C[C@H](CSC)[C@@H](CC(=O)Nc2ccc(OC)cc2)C1=O
  A: .	B: .	C: -14	D: 6	E: .	F: 3	G: 5	H: .

CCOP(=O)(OCC)C(NCc1ccccc1)c1ccc(Br)cc1 (stereo not given)
  A: .	B: 24	C: -10	D: .	E: -1	F: 6	G: 3	H: i

COC(=O)c1cc(OC)c(OC)cc1NC(=O)Nc1ccccc1F
  A: -15	B: 11	C: -24	D: 10	E: -6	F: 2	G: 0	H: i

Cc1cccc(C)c1-n1nnnc1C(C1CC1)N1CCN(C/C=C/c2ccccc2)CC1 (stereo not given)
  A: .	B: .	C: -9	D: -31	E: .	F: 1	G: -5	H: .

Reformatted: 5 of the compounds above.
Structure | CSC inhib | PABP FP inh | Yeast UUG start | HIV Env fusion | eIF4H FP inh | MT1-MMP act inh | MT1-MMP act inh RFP | Rce1 inhib
CC12CC3(C)CC(C)(C1)CC(C(=O)Nc1nn[nH]n1)(C2)C3 | 10 | 17 | -21 | -10 | 2 | 7 | 3 | i
CC(C)NC(=S)N(C)C1(c2ccccc2Cl)CCCCC1=O (stereo not given) | -5 | -1 | . | -19 | -1 | 1 | 1 | i
COCC(=O)N1CCC(Oc2ccc(C(=O)N3CCCCC3COC)cc2)CC1 (stereo not given) | -9 | -10 | -24 | 3 | -16 | 5 | 5 | i
CCCn1c(SCC(=O)NC2CCCC(C)C2C)n[nH]c1=O (stereo not given) | 1 | 4 | -21 | . | -7 | -1 | 0 | i
CC1(C)CC(CC(=O)NNc2nc(-c3ccccc3)cs2)C(=O)O1 (stereo not given) | 8 | 6 | . | . | 2 | -3 | 0 | i

(list continues)
Key to letters: A = CSC inhib; B = PABP FP inh; C = Yeast UUG start; D = HIV Env fusion; E = eIF4H FP inh; F = MT1-MMP act inh; G = MT1-MMP act inh RFP; H = Rce1 inhib
O=C(CNc1ccc2ccccc2c1)N/N=C/c1ccncc1
  A: 1	B: 10	C: -17	D: 28	E: 4	F: -3	G: -1	H: i

CCOCC(=O)Nc1nc2c(s1)C(=O)CC(C)(C)C2
  A: 11	B: -13	C: -11	D: 16	E: 3	F: 0	G: 3	H: i

CC(=NCCCn1ccnc1)c1c(C)[nH]n(-c2ccc([N+](=O)[O-])cc2)c1=O
  A: -3	B: -12	C: -3	D: 2	E: 2	F: -2	G: 0	H: i

CC1(C)CC(=O)C(C=NCCN2CCN(C(=S)Nc3cccc(Cl)c3)CC2)=C(O)C1
  A: 1	B: 0	C: -11	D: 17	E: 9	F: 0	G: 1	H: i

CCCC(=O)NC(=S)c1c(C)n(C)n(-c2ccccc2)c1=O
  A: .	B: 0	C: -23	D: 11	E: -9	F: -1	G: 6	H: i

CCC(=O)c1ccc(OC(=O)/C=C/c2cc(OC)c(OC)c(OC)c2)cc1
  A: -3	B: 12	C: -21	D: 1	E: -15	F: 3	G: 0	H: i

O=C(NC1CCCC1)C1=COCCO1
  A: 1	B: 0	C: -12	D: .	E: 3	F: 3	G: 6	H: i

COC(=O)C1=C(C)NC2=C(C(=O)CC(C)(C)C2)C1c1ccsc1 (stereo not given)
  A: 14	B: 15	C: -12	D: .	E: -1	F: 0	G: 1	H: i

CCCCCOC(=O)C(C)c1c(C)[nH]c(=S)[nH]c1=O (stereo not given)
  A: 2	B: -9	C: -10	D: .	E: 3	F: 6	G: 4	H: .

COc1ccc(C)cc1NC(=O)C(C)N1CCOCC1 (stereo not given)
  A: -10	B: 9	C: -3	D: -3	E: 5	F: -3	G: 4	H: i

Cc1ncc([N+](=O)[O-])n1S(=O)(=O)c1cc(Br)ccc1Br
  A: 7	B: 8	C: -11	D: -35	E: 0	F: 0	G: 4	H: i

CCCc1nnc(NS(=O)(=O)c2ccc(OC)cc2)s1
  A: -9	B: -1	C: .	D: -8	E: 1	F: 0	G: -3	H: i

O=C(O)Cn1nnc(-c2ccccc2)c1COc1ccccc1
  A: .	B: .	C: -12	D: -15	E: .	F: -6	G: 1	H: .

CCOc1ccc2noc3c2c1C(=O)c1ccccc1-3
  A: 8	B: 16	C: -7	D: -77	E: 45	F: -79	G: 86	H: i

O=C(CSCc1ccccc1)N/N=C/c1ccc(OCC(=O)N2CCCCC2)cc1
  A: -10	B: 7	C: 5	D: 3	E: -2	F: -5	G: -7	H: i

O=C(CN1C(=O)NC2(CCCC2)C1=O)N1CCc2ccccc2C1
  A: -27	B: 10	C: .	D: -9	E: -2	F: 2	G: 5	H: .

CCOC(=O)CNC(=O)C1(NC(=O)CNC(=O)OCc2ccccc2)CCCC1
  A: .	B: .	C: -26	D: -51	E: .	F: -1	G: 7	H: .

Cc1nnc(NC(=O)C23CC4CC(CC(C4)C2)C3)s1
  A: -2	B: -1	C: -10	D: -3	E: 0	F: 0	G: -7	H: i

CCOC(=O)N1CCN(C(=O)CSCc2ccc(Br)cc2)CC1
  A: -23	B: 4	C: .	D: 8	E: 3	F: 0	G: -2	H: i

From PubChem

Only part of the results is shown; the hit share may differ from the screen's.
